WNV NS2B-NS3 inh – inhibitors of WNV NS2B-NS3 protease, primary screen, biochemical, fluorogenic substrate; Genome polyprotein (West Nile virus), P06935; fluorogenic substrate Ex360/Em465; stronger effect = lower value; z-score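 (tested at a level between 10 and 100 µM)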; actives 0.18% (n = 65,000);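 active = z-score at -3 or under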;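 also: score is relative to mean and spread of the compound wells of a plate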
Target sequence (P06935 1371-1501 limits assumed): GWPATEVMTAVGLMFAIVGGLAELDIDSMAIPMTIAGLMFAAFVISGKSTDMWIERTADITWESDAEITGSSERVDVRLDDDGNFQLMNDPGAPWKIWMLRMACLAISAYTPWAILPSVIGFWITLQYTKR
Target sequence (P06935 1502-1679 limits assumed): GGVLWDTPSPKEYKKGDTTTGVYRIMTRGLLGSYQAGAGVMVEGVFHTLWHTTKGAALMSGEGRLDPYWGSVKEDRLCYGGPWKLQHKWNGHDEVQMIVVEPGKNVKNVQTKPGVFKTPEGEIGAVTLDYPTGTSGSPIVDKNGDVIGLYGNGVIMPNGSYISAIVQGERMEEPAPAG
Hsc70 – Hsc70 inhibitors, probe displacement, primary screen, biochemical, fluorescence polarization (AID 568); Hsc70 fluorescence polarization, probe displacement; higher % means a stronger effect; strong numbers were not always called active; displacement, % at 20 µM; hits with a dose series show IC50 in µM; 83,000 tested, under 10 active;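 active = displacement above 50% without optical interference and an IC50 on retest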;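 also: ATPase domain with a fluorescein-tagged ATP probe; 0% = vehicle and 100% = excess ADP; read after one hour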
MT1-MMP reporter – inhibitors of MT1-MMP promoter transcription, cell-based, luciferase reporter, luminescence (AID 618); MT1-MMP promoter luciferase reporter cells, luminescence; calls from a first round at 10 µM; hits with a dose series show EC50 in µM; actives 0.62% (n = 87,000);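 active = over half of the reporter light lost at 10 µM or EC50 under 50 µM; inactive = the rest and hits that failed the dose series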;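 also: actives suppress MT1-MMP promoter-driven transcription so potencies describe inhibitors; HT1080 fibrosarcoma cells; overnight exposure; toxic or luciferase-blocking compounds were not removed from the actives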
* = called active by the depositor; i = inactive; · = no result given.

Screens in order – MT1-MMP reporter | Hsc70 | WNV NS2B-NS3 inh
COc1ccc(-c2nc(CS(=O)CC(=O)NCCC3=CCCCC3)c(C)o2)cc1 (stereo unspecified)
→ i | 2.8% | 0.37
Cc1csc2nc(CNC(=O)C3CCCCC3)cn12
→ i | 2.6% | 1.6
Cc1ccc(OS(=O)Nc2cccc3nccnc23)cc1 (stereo unspecified)
→ i | 3.9% | 0.25
CSc1nnc2c(n1)OC(c1cccn1C)N(C(C)=O)c1ccccc1-2 (stereo unspecified)
→ i | -3.0% | -0.2
C/C(Cl)=C\Cn1c(Nc2ccc(C)cc2)nc2c1c(=O)n(C)c(=O)n2C
→ i | 6.9% | 0.63
Cc1cc(F)c(F)c(C(=O)NC2CC2)c1Cl
→ i | 1.8% | 0.88
Cn1nc(-c2ccc(Cl)cc2)c2cc(C(=O)NCc3ccco3)sc21
→ i | -1.9% | -2
N#Cc1ccccc1NC(=O)CSc1nnc(-c2ccccc2O)n1-c1ccccc1
→ i | -3.5% | -1.6
O=C(c1csc2ccccc12)n1cccn1
→ i | -3.1% | 1.3
N#Cc1c(N)nc2c(c1-c1ccc3c(c1)OCO3)CCCCCC2
→ i | 12% | 0.32
C1=C2C[N+]3(CCCC3)CC2Cc2ccc3ccccc3c21 (stereo unspecified)
→ i | 6.3% | ·
O=C(Cn1c(=O)sc2ccccc21)Nc1ccc2c(c1)OCCO2
→ i | 3.1% | -0.19
CCN(CC(=O)NC1CCS(=O)(=O)C1)c1nc(-c2cccnc2)nc2ccccc12 (stereo unspecified)
→ i | 7.2% | ·
CSc1nc2sc3c(c2c2nncn12)CCC3
→ i | -4.3% | -0.21
Cc1cc2cc(C(c3nnnn3Cc3ccccc3)N3CCc4ccccc43)c(=O)[nH]c2cc1C (stereo unspecified)
→ i | -1.5% | ·
COc1ccc2c(c1OC)C(=O)N1c3ccccc3COC21 (stereo unspecified)
→ i | -0.1% | -0.52
c1ccc(Cn2nnc(-c3ccccc3)n2)cc1
→ i | 3.6% | ·
Cc1ccc(-n2ncc3c(=O)n(CC(=O)NC4CCCCC4)cnc32)cc1C
→ i | -1.7% | -0.84
O=S1(=O)CC(O)C(N2CCCCC2)C1 (stereo unspecified)
→ i | 6.3% | ·
COc1cccc2c1NC(C(=O)O)C1CC=CC21 (stereo unspecified)
→ i | -19% | -0.39
CC(C)Cc1nnc(NS(=O)(=O)c2ccc(Cl)cc2)s1
→ i | 2.0% | -0.18
COC(=O)CSc1nnc(CNC(=O)c2ccc(S(=O)(=O)N3CCCCC3)cc2)n1C
→ i | -3.0% | -0.79
CCCCOc1ccc(-c2nnc(N)s2)cc1
→ i | -5.3% | -0.26
CCOc1cccc(/C(O)=C2/C(=O)C(=O)N(CCOC)C2c2ccc(C)o2)c1 (stereo unspecified)
→ i | 5.0% | -1.1
Cc1nnc(SCC(=O)N2CCCCC2)s1
→ i | -1.6% | -2.4
C=CCSC1=C(C#N)C(c2ccc(C(C)C)cc2)CC(=O)N1 (stereo unspecified)
→ i | 2.8% | 0.69
Cc1noc(NS(=O)(=O)c2ccc(NC(=O)C34CCC(CC3)C4)cc2)c1C
→ i | 2.1% | 0.22
COc1ccccc1C(c1nnnn1Cc1ccccc1)N1CCC(C(N)=O)CC1 (stereo unspecified)
→ i | 4.4% | ·
COCCCN1C(=O)C(=O)/C(=C(/O)c2ccccc2)C1c1ccc2c(c1)OCO2 (stereo unspecified)
→ i | -2.7% | 0.07
Cc1c(C(=O)NCCC2=CCCCC2)oc2ccc(S(=O)(=O)N3CCOCC3)cc12
→ i | -2.9% | -0.39
COc1ccc(CNc2nc3nc(C)c(Cl)c(=O)n3[nH]2)cc1OC
→ i | 2.4% | 0.15
Cc1cccc(C(=O)N(C)c2nnc(-c3ccncc3)s2)c1
→ i | -1.5% | 0.73
O=C(Cn1cccc1)NC1CCCCCC1
→ i | -2.0% | -0.62
CC1(C)CCCC2=C1CC1C(=O)N(Cc3cccnc3)C(=O)C1C2 (stereo unspecified)
→ i | 5.1% | 0.6
CCOC(=O)C(NCc1ccc2c(c1)OCO2)(NC(=O)c1ccccc1)C(F)(F)F (stereo unspecified)
→ i | -1.3% | ·
Cc1nn(-c2ccccc2)c(C)c1C(=O)Nc1nnc(-c2ccco2)o1
→ i | 1.6% | -0.67
O=C(CCS(=O)(=O)c1cccs1)Nc1ccc(C(=O)NCc2cccs2)cc1
→ i | -0.4% | 1.2
c1cc(N2CCCC2)ccc1C(c1nnnn1C1CCCCC1)N1CCOCC1 (stereo unspecified)
→ i | -4.8% | 0.32
Cc1ccc(SC(C)C(=O)Nc2c(C)n(C)n(-c3ccccc3)c2=O)cc1 (stereo unspecified)
→ i | -1.8% | ·
CC1=C(C(=O)OC(C)C)C(c2cccc(F)c2)n2ncnc2N1 (stereo unspecified)
→ i | 0.3% | 0.91
CCOc1ccc(S(=O)(=O)NCc2ccc(OC)cc2)c2cccnc12
→ i | 6.2% | ·
c1ccc2sc(NC3=NCN(Cc4ccc5c(c4)OCO5)CN3)nc2c1
→ i | -2.0% | -0.96
CCN(CC)c1ccc(N=Cc2ccc(N(CC)CC)cc2O)cc1
→ i | -99% | ·
C(=N\n1cnnc1)/c1cccc2ccccc12
→ i | -2.1% | 0.57
CCc1nc(C)cn1S(=O)(=O)c1cc(C)c(OC)cc1C
→ i | 6.9% | 0.08
CCC(C)NC(=O)C1CCCN(C(=O)Nc2ccc(F)cc2)C1 (stereo unspecified)
→ i | -7.9% | -0.9
OCc1cn(-c2ccccc2)nc1-c1ccc2c(c1)OCCO2
→ i | 0.9% | 0.87
CCN(CC)S(=O)(=O)c1ccc(Cl)c(C(=O)NCc2ccccc2Cl)c1
→ i | -0.2% | ·
O=C1CCc2cc(S(=O)(=O)N3CCCC3C(=O)N3CCN(c4ccccc4F)CC3)ccc2N1 (stereo unspecified)
→ i | -3.4% | 1.6
c1ccc(CNc2nc3ccccc3n3cnnc23)nc1
→ i | 0.9% | -1.6
COc1ccc(OC)c(S(=O)(=O)NCCC2=CCCCC2)c1
→ i | 5.9% | -0.75
Cc1cc(Nc2ccc(F)cc2F)n2nc(C)nc2n1
→ i | -2.2% | 0.32
COC(=O)Nc1nnc(SCc2ccc(C)cc2)s1
→ i | -6.4% | 0.35
O=C(NCCN1C(=O)C2C3C=CC(C3)C2C1=O)N1CCOCC1 (stereo unspecified)
→ i | -0.1% | -0.33
CCn1c(COc2cccc(OC)c2)nnc1SCC(=O)Nc1cccc(OC)c1
→ i | 1.2% | 1.3
CC(=O)C(Sc1ccc2nnc(-c3ccc(C)cc3)n2n1)C(C)=O
→ i | -0.3% | 0.03
Cc1ccc(OCC(=O)Nc2cccc(-c3nnc(-c4ccccc4)o3)c2)c(C)c1
→ i | 3.6% | ·
Nc1nc2c(s1)C(=O)CCC2
→ i | -2.0% | 0.18
NC(=O)c1c(NC(=O)CSc2nnc(-c3ccccc3)n2CC2CCCO2)sc2c1CCC2 (stereo unspecified)
→ i | -5.7% | -0.65
O=C(O)CN(c1ccccc1)C1SC(=O)NC1=O (stereo unspecified)
→ i | -1.8% | -0.4

The final 5 entries of the section above are carried over, then new ones follow.
Screens in order – MT1-MMP reporter | Hsc70 | WNV NS2B-NS3 inh
CC(=O)C(Sc1ccc2nnc(-c3ccc(C)cc3)n2n1)C(C)=O
→ i | -0.3% | 0.03
Cc1ccc(OCC(=O)Nc2cccc(-c3nnc(-c4ccccc4)o3)c2)c(C)c1
→ i | 3.6% | ·
Nc1nc2c(s1)C(=O)CCC2
→ i | -2.0% | 0.18
NC(=O)c1c(NC(=O)CSc2nnc(-c3ccccc3)n2CC2CCCO2)sc2c1CCC2 (stereo unspecified)
→ i | -5.7% | -0.65
O=C(O)CN(c1ccccc1)C1SC(=O)NC1=O (stereo unspecified)
→ i | -1.8% | -0.4
CC(C)N1C(=O)C2C(C(=O)NC3CCCCC3)C3C=CC2(O3)C1C(=O)NC1CCCC1 (stereo unspecified)
→ i | 5.2% | 0.57
COc1cccc(-n2nnc3c(=O)n(Cc4ccccc4Cl)cnc32)c1
→ i | -5.6% | 0.37
Cc1cccc(Cn2nnc3c2C(=O)c2ccccc2C3=O)c1
→ i | -1.5% | ·
Cn1c(=O)[nH]c(=O)c2c1nc(N1CCOCC1)n2CCSc1ncccn1
→ i | -5.2% | 1.3
Cc1cccc(-n2ncc3c(NC4CCCCC4)ncnc32)c1
→ i | 2.0% | -1.4
Cc1cnc(C(=O)Nc2nnc(C(C)C)s2)cn1
→ i | 0.6% | -0.22
CCc1ccc(Nc2nnc(SCn3nnc4ccccc4c3=O)s2)cc1
→ i | -2.2% | ·
CCC(CC)C(=O)NCc1ccccc1OC
→ i | 1.2% | -0.55
CSc1ccc(-c2nc(CSCC(=O)N3CCOCC3)c(C)o2)cc1
→ i | 1.7% | -0.33
O=Cc1ccc2noc(-c3ccc(F)cc3)c2c1
→ i | 85% | ·
Brc1ccc2c(c1)CNc1c(ncnc1N1CCOCC1)O2
→ i | -2.6% | 0.61
CCSc1nc(-c2ccc(OC)cc2)n(-c2nc3ccccc3s2)n1
→ i | 2.2% | 1.2
c1ccc2[nH]c(SCc3ccc(-c4nnco4)cc3)nc2c1
→ i | -8.8% | 0.84
Cc1ccc2c(C)nc(Nc3ncc4c(n3)CCCC4=O)nc2c1
→ i | 5.1% | -1.1
Cc1ccc(C(C(=O)NC2CCCC2)N(Cc2cccs2)C(=O)c2csnn2)o1 (stereo unspecified)
→ i | -1.2% | ·
CCCc1nnc(SCC(=O)Nc2ccc(OC)cc2)n1N
→ i | -2.4% | -0.48
CC1CCc2nn(CC(=O)NCCN3CCCCC3C)cc2C1 (stereo unspecified)
→ i | 3.0% | -0.67
Cc1ccc(N(C(=O)Cn2nnc3ccccc32)C(C(=O)NCc2ccco2)c2ccc(C)o2)cc1 (stereo unspecified)
→ i | -11% | 0.48
c1ccc(-c2csc3ncn4nnnc4c23)cc1
→ i | -0.7% | 0.15
O=C(COC(=O)c1ccccc1-c1ccccc1[N+](=O)[O-])c1ccccc1
→ i | 2.7% | ·
CC1CCCCC1NC(=O)CN1C(=O)NC(C)(c2ccc(OC(F)F)cc2)C1=O (stereo unspecified)
→ i | 1.5% | -1.1
N#Cc1c(NC(=O)CCCN2C(=O)c3ccccc3C2=O)oc(-c2ccccc2)c1-c1ccccc1
→ i | 0.0% | 2.2
O=C(Cc1ccccc1)Nc1nc2ccccc2[nH]1
→ i | -4.3% | -1.6
CCOC(=O)c1c(CC(C)C)csc1NC(C)=O
→ i | -4.8% | -1.1
CCOc1ccccc1NC(=O)C1C2C=CC(O2)C1C(=O)O (stereo unspecified)
→ i | -7.9% | 1.6
Cc1ccc(S(=O)(=O)NC(CC(N)=O)C(=O)O)cc1 (stereo unspecified)
→ i | 0.6% | 2.2
CC(CN1CCOCC1)OC(=O)c1ccccc1Br (stereo unspecified)
→ i | -3.2% | -1.9
C=C(C)Cn1c(SCC(=O)O)nnc1-c1ccc(C(C)(C)C)cc1
→ i | -2.8% | -0.83
COc1cc2cc(C(c3nnnn3C3CCCC3)N3CCCCC3)c(=O)[nH]c2cc1OC (stereo unspecified)
→ i | 6.2% | -0.28
Cn1c(C(O)c2ccccc2F)nc(Cl)c1Cl (stereo unspecified)
→ i | -2.2% | -0.87

Rewritten in markdown: entries from further up
| Compound | MT1-MMP reporter | Hsc70 | WNV NS2B-NS3 inh |
| --- | --- | --- | --- |
| COc1cccc(-n2nnc3c(=O)n(Cc4ccccc4Cl)cnc32)c1 | i | -5.6% | 0.37 |
| Cc1cccc(Cn2nnc3c2C(=O)c2ccccc2C3=O)c1 | i | -1.5% | · |
| Cn1c(=O)[nH]c(=O)c2c1nc(N1CCOCC1)n2CCSc1ncccn1 | i | -5.2% | 1.3 |

Next part
Screens in order – MT1-MMP reporter | Hsc70 | WNV NS2B-NS3 inh
CCN(CC)C(=O)c1ccccc1NC(=O)c1cccc(S(=O)(=O)N(CC)CC)c1
→ i | 4.3% | ·
CC(=O)c1cccc(NC(=O)N2CCCC2C(=O)NCCC(C)C)c1 (stereo unspecified)
→ i | 5.0% | 0.18
O=C(Cc1ccccc1)Nc1ccc(-c2nnc(-c3ccco3)o2)cc1
→ i | -2.6% | 2.1
CCCCCOc1ccc(C2C(C(C)=O)=C(C)Nc3ncnn32)cc1OC (stereo unspecified)
→ i | -5.0% | -0.69
CN(C)C(=O)Nc1cnc2ccccc2c1
→ i | 0.9% | -0.52
COC(=O)c1sc(N2C(=O)C(O)=C(C(=O)c3ccc(C)o3)C2c2ccc(F)cc2)nc1C (stereo unspecified)
→ i | -10% | -0.88
Cn1c(=O)n(C)c2cc(S(=O)(=O)NCc3ccco3)ccc21
→ i | 7.7% | -0.46
N/C(=N\OC(=O)Cc1ccc(-c2ccccc2)cc1)c1ccccn1
→ i | -6.3% | ·
CCCCNc1oc(-c2cccs2)nc1S(=O)(=O)c1ccccc1
→ i | 2.5% | ·
O=C(c1ccc(Br)o1)N1CCN=C1SCc1cccnc1
→ i | 6.0% | -1.2
O=C(Cc1cccs1)OCC(=O)c1ccco1
→ i | -0.7% | 0.9
Cc1ccc(OCC(=O)N2CCCCC2)c(Br)c1
→ i | 3.2% | -0.35
Cc1ccc2nc(NC(=O)CCCc3nc4ccccc4s3)sc2c1
→ i | -1.4% | ·
CCN(CC)c1nc2n(c(=O)n1)CCO2
→ i | -9.1% | 0.88
CCC(C)(C)n1nnnc1C(c1cc2cc(OC)ccc2[nH]c1=O)N1CCc2ccccc21 (stereo unspecified)
→ i | -0.6% | -0.3

A portion of the library; count on the stated rates, not on these rows.
